# Screening results from PubChem BioAssay.
# HIV TAR-Tat – HIV-1 TAR-Tat binding disruption; HIV-1 TAR RNA, Tat peptide displacement FRET; stronger effect = higher value; z-score (no concentration beside the values); actives 0.6% (n = 100,000);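 further: score is relative to mean and SD of negative controls; some compounds called inactive have numbers as strong as hits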
# CDC25B-CDK2 inh – human CDC25B-CDK2/CyclinA binding inhibition | actives 0.72% (n = 94,000) | AID 1259370 | P30305+P24941 | HTRF CDC25B-CDK2/CyclinA binding, anti-His/anti-Flag; stronger effect = higher value | z-score (test concentration not listed);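 further: score is relative to mean and SD of negative controls; strong numbers were not always called active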
# * hit, by the source's call; / = no result given.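 How the source made its calls: active means z-score from 3 up in half or more of its runs; inactive means the rest.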
SMILES,HIV TAR-Tat,CDC25B-CDK2 inh
Cc1ccc(C(=O)N2NC(c3ccccc3F)C3C(=O)N(c4ccc(C)cc4)C(=O)C32)cc1 (stereo unspecified),/,0.25
COC(=O)c1cc2ccsc2n1CC(=O)N(C)c1ccccc1,-0.8,-0.29
COc1cc(OC)cc(-n2nnc(-c3nc(-c4ccc(C)cc4)no3)c2N)c1,-0.43,/
COc1ccc(N2C(=O)N(c3cccc(Br)c3)C3CS(=O)(=O)CC32)cc1 (stereo unspecified),-0.16,-1
Fc1ccc(OCCSc2nc3ncccc3o2)cc1,-0.6,/
O=C(NC1CCCC1)C1CCN(C(=O)c2cc3ccsc3[nH]2)CC1,-0.31,/
CCCCN(Cc1ccco1)C(=O)Cn1ncc2c1-c1ccccc1OC2,0.24,-0.09
Cc1ccc(NC(=O)NC(=O)c2c(-c3snnc3C)noc2C)cc1,/,-0.92
Cc1ccnc(NS(=O)(=O)c2ccc3c(c2)NC(=O)CC(C)S3)c1 (stereo unspecified),1.9,/
Cc1ccc(-c2cn3c(n2)sc2cc(C(=O)O)ccc23)cc1,1.5,-1
O=C1CC(c2ccccc2)CC2=C1C(c1cccs1)Nc1ccccc1N2 (stereo unspecified),2.3,-2.2
COc1ccc(C2/C(=C(\O)c3ccc(F)cc3)C(=O)C(=O)N2c2nncs2)cc1 (stereo unspecified),0.35,-1.6
CC(=O)c1cc(CC=C(C)C)c(O)c(CC=C(C)C)c1,0.91,/
COc1cccc(C2CC(=O)Nc3c2c(C)nn3-c2ccc3nncn3n2)c1OCc1ccccc1C (stereo unspecified),0.64,2.7
Cc1cc(NS(=O)(=O)c2ccc(Nc3nc(-c4ccccn4)cs3)cc2)no1,/,-0.84
Cn1c(NCCc2ccccc2)nc2c1c(=O)n(Cc1ccccc1Cl)c(=O)n2C,-0.16,0.58
CC(=O)N1c2ccccc2NC2=C(C(=O)CC(c3cccc(Br)c3)C2)C1c1ccc(C)cc1 (stereo unspecified),/,-2.5
CC1CCN(S(=O)(=O)N2CCCC(C(=O)N3CCN(C(=O)c4ccco4)CC3)C2)CC1 (stereo unspecified),-0.16,/
Cn1c(C(=O)N2CCC(C(=O)NCCc3ccccc3)CC2)cc2sccc21,/,-2.6
O=C(NCCCN1CCN(Cc2ccccc2)CC1)c1cn2cc(C(F)(F)F)cc(Cl)c2n1,/,-1.1
Cc1ccc(OC(C)C(=O)Oc2ccc(-n3cnnn3)cc2)cc1C (stereo unspecified),-2.3,0.21
CCn1c(C(=O)N2CCC(C(=O)N3CCN(c4ccccn4)CC3)CC2)cc2sccc21,1.1,-1.1
COCCCNC(=S)N1CCN(c2ccc([N+](=O)[O-])cn2)CC1,/,-0.68
Cc1nc(N2C(=O)c3oc4ccccc4c(=O)c3C2c2ccc(O)cc2)sc1C (stereo unspecified),-0.25,-2.5
Cc1ccc(Oc2c(C(F)(F)F)oc3c(CN4CC(C)OC(C)C4)c(O)ccc3c2=O)cc1 (stereo unspecified),-1.2,-1
# Following part:
SMILES,HIV TAR-Tat,CDC25B-CDK2 inh
Cc1nc2nc[nH]n2c(=O)c1NS(=O)(=O)c1ccc(N2CCCC2=O)cc1,0.45,-3.6
O=C(c1ccccc1)c1cnc2ccc(Cl)cc2c1N1CCOCC1,3.2,3.2
O=C(Nc1ccc(Br)cc1F)N1CCC(CN2CCc3ccccc3C2)CC1,0.95,/
CC1(C)Cc2c(C#N)c(SCc3ccc(Cl)cc3)nc(N3CCOCC3)c2CO1,-0.38,-1.5
c1ccc(Cc2nn3c(Cn4nnc5ccccc54)nnc3s2)cc1,1.4,0.95
CCOC(=O)C1CCN(S(=O)(=O)c2ccc(-c3n[nH]c(C)c3C)s2)CC1,-0.94,/
COc1ccc(C2Nc3ccc(Br)cc3-c3nnc(SC)nc3O2)c(OC)c1 (stereo unspecified),0.06,-8.6
CC(=O)Nc1nc(C)c(-c2csc(Nc3ccc(S(=O)(=O)Nc4cc(C)on4)cc3)n2)s1,/,-1.6
COc1ccc(Cc2c(Cl)ncnc2Cl)cc1,0.23,-0.64
Cc1cc(=O)[nH]c(SC(C(=O)Nc2cc(C)on2)c2ccccc2)n1 (stereo unspecified),-1.8,0.74
COc1ccc(-c2nnc3c4cc5c(cc4n(Cc4ccccc4F)cc2-3)OCCO5)cc1OC,1.1,7.3*
O=C(Nc1ccc2c(c1)OCCO2)c1cc(-c2ccncc2)n[nH]1,3.9,/
CC(c1ccccc1)N1CC(O)=C(c2nc3ccccc3c(=O)[nH]2)C1=N (stereo unspecified),0.46,-0.79
CC1(C)CC(=O)C2=C(C1)Nc1nc(SCCN3CCOCC3)[nH]c(=O)c1C2c1cccs1 (stereo unspecified),/,-0.91
COc1nc(OC)nc(Oc2ccccc2)n1,/,-1.6
CCCCOC(=O)Nc1nc2ccccc2s1,-0.72,-2.4
Cc1nn(CC(=O)NCCN2CCOCC2)c(C)c1[N+](=O)[O-],1.1,-1.4
CC1Cc2cc(S(=O)(=O)NCCC3=CCCCC3)ccc2N1C(=O)C1CCC1 (stereo unspecified),1.3,/
Cc1ccc2nc3c(cc(C#N)c(=O)n3CC3CCCO3)c(=O)n2c1 (stereo unspecified),4.1,-0.25
c1coc(CNc2ncnc3c2nc2n3CCCC2)c1,-2.1,/
O=C1/C(=C\c2ccc3c(c2)OCO3)SC(=S)N1Cc1ccc(Cl)c(Cl)c1,/,0.29
CCOC(=O)c1nnn(-c2nonc2N)c1-c1ccc(F)cc1,0.93,0.02
Cc1ccc2oc(-c3cccc(N)c3)nc2c1,1.1,-2.4
Fc1ccc(-c2noc3ncnc(NC4CCCc5ccccc54)c23)cc1 (stereo unspecified),0.29,/
COc1ccc(-c2nc(SCc3cc(=O)c4cc(C)cc(C)c4[nH]3)n[nH]2)cc1,-1.1,/
# Next records
SMILES,HIV TAR-Tat,CDC25B-CDK2 inh
CCOC(=O)N1CCN(C(=O)C2CCN(S(=O)(=O)N(CC)CC)CC2)CC1,0.72,/
CCOC(=O)N1CCC(c2cc(=O)n3[nH]cc(C(=O)OC)c3n2)CC1,0.81,-1.4
Cc1nn(CC(=O)N2CC(C)CC(C)C2)c(=O)c2cccn12 (stereo unspecified),1.3,-1.7
Brc1ccc(Nc2c3c(nc4ncnn24)CCCC3)cc1,1.1,/
COc1cc2c(=O)c(C(=O)c3ccccc3)cn(Cc3ccc(F)cc3)c2cc1OC,-0.47,-1
Cc1ccc(C)c(NC(=O)Nc2cc3sccc3n2C)c1,-10,3.8
COc1ccc(OC)c(/C=C/C(=O)Nc2cc(OC)ccc2OC)c1,/,0.15
Cc1ccc(CSc2nc3c(c(=O)[nH]2)C(c2cccc(O)c2)CC(=O)N3)cc1 (stereo unspecified),1.2,-0.89
Fc1ccc(-c2csc3ncnc(NCCN4CCOCC4)c23)cc1,-1,-2.3
Cc1nnc(-c2ccccn2)[nH]c1=O,/,0.77
CC(C)(C)c1ccc(C(O)=C(C#N)C#N)cc1,/,-0.2
O=C(Nc1nc(C2COc3ccccc3O2)cs1)c1ccc(Br)cc1 (stereo unspecified),0.95,0.29
CCOC(=O)N1CCC(NC(=O)c2sc3nc4n(c(=O)c3c2C)CCCC4)CC1,0.95,/
CCn1c2ccccc2c2cc(NC(=O)Cn3ncc4c3-c3ccccc3OC4)ccc21,0.47,-0.29
CCCCN1CCc2nc(N3CCN(CCC)CC3)ncc2C1,1.6,/
CCCc1cc(=O)n2nc(N(C)CC(=O)NC3CCCCC3)sc2n1,0.78,0.04
COCCCNC(=O)c1ccccc1C(=O)Nc1cc(C(F)(F)F)cc(C(F)(F)F)c1,/,-2.5
NNC(=O)c1nc(-c2c(F)cccc2Cl)no1,/,-1.4
O=C1Nc2ccc([N+](=O)[O-])cc2C1=O,-1.4,/
Cc1cc(NC(=O)CSC2=NS(=O)(=O)c3ccccc3N2)n[nH]1,0.83,/
COc1ccc(-c2csc3nc(C(C)C)oc(=O)c23)cc1OC,/,-0.75
CCCN1CCN(C(=O)C(CC)N2C(=O)CCn3nc(C)cc32)CC1 (stereo unspecified),1.7,/
Cc1nnc(NCc2ccc(F)cc2)c2c1nnn2Cc1ccccc1Cl,-0.16,-2.7
Cc1cccc(Cn2cc(C(=O)c3ccccc3)c(=O)c3cc4c(cc32)OCCO4)c1,0.1,0.18
CSc1cccc(NC(=O)c2cn(C3CCCC3)c(=O)c3c2c2ccccc2n3C)c1,1.7,0.62
# The list continues:
SMILES,HIV TAR-Tat,CDC25B-CDK2 inh
Cc1nn(-c2ccccc2)c2nc(N)c(C(N)=O)cc12,/,0.27
Cn1cccc1C(=O)N/N=C/c1c(Cl)cccc1Cl,/,-1.5
Cc1nn(CCCC(=O)NC2CCCc3ccccc32)c(=O)c2c1sc1ccccc12 (stereo unspecified),2.7,-1.8
CC(=O)N1CCOc2ccc(S(=O)(=O)NCCc3sccc3C)cc21,2.1,-0.71
c1coc(-c2nn3c(Cn4cnc5ccccc54)nnc3s2)c1,1.3,1.6
O=C(C1CCN(c2ccc(-c3cccs3)nn2)CC1)N1CCCCC1,0.12,/
CCCCN(CC)C(=O)Cn1cnc2sc(C)c(S(=O)(=O)N3CCC(C)CC3)c2c1=O,/,2.5
NC(=O)c1c(NC(=O)c2csnn2)sc2c1CCCC2,-0.5,-3.3
CC1Cc2cc(S(=O)(=O)NC3CCCc4ccccc43)ccc2N1C(=O)C1CCC1 (stereo unspecified),-1,/
Cc1nc2nc[nH]n2c(=O)c1Oc1ccc(N)cc1,1.8,/
O=C(/C=C/Nc1cc(C(F)(F)F)cc(C(F)(F)F)c1)c1ccc(F)cc1,/,-1.4
Cc1ccc(OCC(=O)OC2=C(C(=O)c3ccccc3)N(C)S(=O)(=O)c3ccccc32)cc1,0.82,0.61
Cc1cc(=O)n2c(n1)NC(Nc1ccccc1)=NC2c1ccccc1 (stereo unspecified),-0.01,-1.1
CCN1CCN(c2cc3c(cc2F)c(=O)c(S(=O)(=O)c2ccc(OC)cc2)cn3C)CC1,-0.13,/
Cc1cc(C(=O)CSc2nnc3ccccn23)c(C)n1-c1ccc(F)cc1,-1.8,-1.3
COc1cccc(Nc2cc(N3CCC(=O)CC3)c3noc4c3c2C(=O)c2ccccc2-4)c1,1.4,-1.9
COC(=O)CSc1nc(C)c2c(n1)CCCC2,/,-1.6
COc1ccc(-c2csc3c(=O)[nH]cnc23)cc1OC,1.5,-2.1
Cn1c(SCC(=O)N2CCCc3ccccc32)ncc(C(=O)Nc2ccccc2)c1=O,1.7,/
CCCCN(Cc1ccco1)C(=O)c1nn(C)c2c1COc1ccccc1-2,0.59,-0.93
CCN1CNC(=S)N(c2cccc(C)c2C)C1,/,-0.34
O=C(O)Cn1c(-c2cccs2)cc2ccccc21,1.7,1.8
CCOC(=O)C1=C(C)Nc2nc(SCC)nn2C1c1ccccc1C (stereo unspecified),1.5,-0.65
CS/C(=N/S(=O)(=O)c1ccccc1)N1CCN(c2c(C#N)cccc2C#N)CC1,/,-1.4
CC1(C(=O)NC2CCCC2)Cn2c(cc3sccc32)C(=O)N1CC1CCCO1 (stereo unspecified),0.41,-1.2
# Remaining list, next part
SMILES,HIV TAR-Tat,CDC25B-CDK2 inh
O=C(NCCN1CCCC1)C1Cc2ccccc2N1C(=O)c1ccccc1 (stereo unspecified),0.62,/
CCCSc1ncnc2c1sc1nc3c(cc12)COC(C)(C)C3,/,-1.7
COc1ccc(NC(=O)CSc2nc(-c3ccco3)cc(C(F)(F)F)n2)cc1,1.5,0.51
Cc1ccc2onc(CNC(=O)NCc3cccnc3)c2c1,1.5,/
CCOc1cc(S(=O)(=O)n2cc(C)nc2CC)ccc1F,0.77,-1.4
CCCCCCc1c(O)c2ccccc2[nH]c1=O,3.8,-2.3
COC(=O)c1c(NC(=O)CCCOc2ccc(Cl)cc2)sc2c1CCC2,0.72,-0.7
CCOC(=O)c1cnc(SC)nc1C,0.71,/
Cc1cc2n(n1)C(c1ccc(C(=O)O)cc1)Nc1c(C)cccc1-2 (stereo unspecified),0.55,-1.1
CCCCSC1=C(C#N)C(=O)NC(C(C)C)S1 (stereo unspecified),0.73,-3.4
COc1ccc(N2C(=O)C3N=NN(CC(=O)Nc4cc(F)ccc4F)C3C2=O)cc1Cl (stereo unspecified),1.5,/
COc1ccc2c(c1)CC(NC(=O)NC1CCCCC1)CO2 (stereo unspecified),2.2,/
COC(=O)C(C)Sc1nnc(CSc2nc(C)cc(C)n2)n1-c1ccc(Cl)cc1 (stereo unspecified),0.39,0.06
